# Screening data (PubChem BioAssay)
# Six1-Eya2 blk: qHTS Assay for Inhibitors of the Six1/Eya2 Interaction. AlphaScreen GST-Six1/His-Eya2 binding, biochemical; active compounds read low; control for the full effect not named in the record. activity change, % (no concentration beside the values). hit rate 0.56% among 360,000; in the data active = activity change below about -65%; inconclusive = about -30% to -65%; inactive = above about -30%; further: on the % scale 0 is the no-effect control and ±100 the full control effect
#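 GST-Six1 + His-Eya2 (5X stock: 250/500 nM); Tris pH 8.0, 300 mM NaCl, 0.05% BSA, 0.02% Tween 20; GSH donor/Ni acceptor beads; 1 h 37 °C dark; AlphaScreen readout.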
# D2 PAM: Beta-Arrestin HTS for Positive Allosteric Modulators of the Human D2 Dopamine Receptor: Potentiators; D(2) dopamine receptor (Homo sapiens), P14416; DiscoveRx D2 beta-arrestin cells, luminescence, 90 min; 100% = 57 uM dopamine signal; potentiation, % (no concentration beside the values); hit rate 0.23% among 360,000; AID 624464, 2012; active = potentiation of 50% or more; inconclusive = 30% to 50%; inactive = 30% or less;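 further: compound concentration not given in the record; tested on top of an EC20 dose of dopamine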
# Target sequence (P14416 whole entry, looked up): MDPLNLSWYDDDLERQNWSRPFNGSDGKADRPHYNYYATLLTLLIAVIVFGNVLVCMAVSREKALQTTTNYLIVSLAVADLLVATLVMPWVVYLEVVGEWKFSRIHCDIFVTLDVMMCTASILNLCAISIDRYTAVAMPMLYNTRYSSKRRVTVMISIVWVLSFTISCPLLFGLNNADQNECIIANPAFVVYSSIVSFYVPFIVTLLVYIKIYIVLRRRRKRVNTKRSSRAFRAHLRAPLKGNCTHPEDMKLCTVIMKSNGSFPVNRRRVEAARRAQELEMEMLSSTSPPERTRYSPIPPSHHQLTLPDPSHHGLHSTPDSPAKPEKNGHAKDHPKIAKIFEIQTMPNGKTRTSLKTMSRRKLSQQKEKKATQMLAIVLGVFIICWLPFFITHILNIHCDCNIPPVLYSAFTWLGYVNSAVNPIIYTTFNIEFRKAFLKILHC
#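 D2 cells co-treated with compound plus 50 nM dopamine (EC20) for 90 min at 37 deg C to detect potentiation. Beta-arrestin recruitment was read as enzyme-fragment luminescence after 1 h at ambient temperature. Full response was set by 57 uM dopamine.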
# TRPV1 PAM: HTS Assay for Compounds that Act as Potentiators of the Vanilloid Receptor 1; Transient receptor potential cation channel subfamily V member 1 (Homo sapiens), Q8NER1; TRPV1-expressing cells, Fluo-8 calcium influx, capsaicin EC20 potentiation; host cell line not named in the record; control for the full effect not named in the record; potentiation, % at 8.33 µM; hit rate 0.02% among 320,000; AID 540277, 2011; active means potentiation above 80%; inconclusive means 30% to 80%; inactive means below 30%; further: 0% is about no effect
#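 TRPV1-expressing cells were cultured overnight at 35.5C and loaded with Fluo-8 calcium dye for 40 to 90 min at room temperature. After a 10 s baseline, compound was added and calcium influx was read kinetically for 3 min (ex 480/em 520 nm).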
# TRPML1 ag: qHTS for Agonists of the Human Mucolipin Transient Receptor Potential 1 (TRPML1); Mucolipin-1 (Homo sapiens), Q9GZU1; TRPML1-expressing cells, Ca2+ dye fluorescence, FDSS; host cell line not named in the record; reference of the full effect not given here; activation, % (concentration not given with the values); hit rate 0.12% among 410,000; AID 624414, 2012; in the data active = activation above about 50%; inconclusive = about 30% to 50%; inactive = below about 30%; further: 0% is about no effect; the text of the record puts the active cut at 80%
# Target sequence (Q9GZU1 whole entry, looked up): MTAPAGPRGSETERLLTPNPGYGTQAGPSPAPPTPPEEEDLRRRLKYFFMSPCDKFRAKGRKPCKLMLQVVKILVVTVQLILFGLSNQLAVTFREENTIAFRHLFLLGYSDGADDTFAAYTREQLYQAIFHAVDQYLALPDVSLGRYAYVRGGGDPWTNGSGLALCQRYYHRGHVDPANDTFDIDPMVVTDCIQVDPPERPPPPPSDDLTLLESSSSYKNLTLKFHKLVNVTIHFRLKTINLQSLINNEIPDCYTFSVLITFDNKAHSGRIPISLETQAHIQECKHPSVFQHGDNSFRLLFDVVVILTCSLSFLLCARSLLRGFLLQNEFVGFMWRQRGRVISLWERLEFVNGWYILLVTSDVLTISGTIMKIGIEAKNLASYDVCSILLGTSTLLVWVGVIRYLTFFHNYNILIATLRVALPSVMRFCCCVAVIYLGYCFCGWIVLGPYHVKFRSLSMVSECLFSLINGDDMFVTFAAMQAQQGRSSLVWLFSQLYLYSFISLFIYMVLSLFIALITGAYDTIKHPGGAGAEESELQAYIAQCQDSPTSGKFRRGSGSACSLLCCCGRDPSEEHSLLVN
#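 Calcium fluorescence on an FDSS kinetic reader gave the read-out. Tet-induced TRPML1-DL cells were plated overnight, dye-loaded (Ca8 with quencher, 45-90 min, room temperature, dark), then read 110 s after compound addition, and again 110 s after 4uM final 54-4 (EC80).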
# TRPML1 blocker: qHTS for Inhibitors of the Human Mucolipin Transient Receptor Potential 1 (TRPML1). TRPML1-inducible cells, Ca2+ dye fluorescence, FDSS; active compounds read low; inhibition of EC80 agonist-evoked calcium signal. activity change, negative = inhibition, % (no concentration beside the values). hit rate 0.02% among 390,000; in the data active means activity change below about -50%; inconclusive means about -30% to -50%; inactive means above about -30%;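 further: stimulus is agonist 54-4 at its EC80 concentration; on the % scale 0 is the no-effect control and ±100 the full control effect; compound concentration not given in the record; the text of the record puts the active cut at -80%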
#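 Calcium fluorescence in TRPML1-DL cells induced overnight with Tet: a 110 s read after compound pin addition, then a 110 s antagonist read after challenge with 54-4 at 4 uM final (EC80).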
# CtBP-E1A blk: qHTS Assay for Inhibitors of the CtBP/E1A Interaction | CtBP / adenovirus E1A interaction (AlphaScreen) | hit rate 0.49% among 340,000 | AlphaScreen GST-E1A/His-CtBP binding, 1536-well; active compounds read low; control for the full effect not named in the record | activity change, % (test concentration not listed); in the data active means activity change below about -65%; inconclusive means about -30% to -65%; inactive means above about -30%; further: on the % scale 0 is the no-effect control and ±100 the full control effect
#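 GST-E1A and His-tagged CtBP (125 nM each as 5X stock) were preincubated with pin-transferred compound for 2 h at 37 °C in the dark, then glutathione donor and nickel acceptor beads were added for 1 h before AlphaScreen reading.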
# * hit, by the source's call; ? = inconclusive; · = no result given.
smiles | Six1-Eya2 blk | D2 PAM | TRPV1 PAM | TRPML1 ag | TRPML1 blocker | CtBP-E1A blk
Cc1ccc(N2CC(C(=O)Nc3ccccc3N3CCCC3)CC2=O)cc1 (configuration not stated) | -2 | -29 | -17 | 5.7 | 21 | -3
Cc1ccc(NC(=O)CN(C)C(=O)CNC(=O)c2ccc3c(c2)OCO3)cc1 | 3 | -18 | 7 | -0.1 | -8 | 4
Nc1ccccc1Nc1cc(-c2ccccc2)[nH]n1 | -8 | 10 | -13 | 3.7 | 10 | -1
COCCNC(=O)[C@@H]1CCCN1C(=O)C1CCN(S(=O)(=O)c2ccc(C)cc2)CC1 | 3 | -9 | 11 | -0.2 | 13 | 7
COc1ccc(OCC(=O)N2CCN(C(=O)COc3ccc(Br)cc3)CC2)cc1 | -3 | -10 | -15 | 0.2 | 6 | 2
CCOc1ccc(C(Nc2ccc(C)cc2)P2(=O)OCCC(C)O2)cc1 (configuration not stated) | -6 | 16 | 16 | -0.1 | 19 | -2
Cc1ccc(N2C(N)=C(C#N)C(c3cccs3)C3=C2CC(C)(C)CC3=O)cc1 (configuration not stated) | -5 | -8 | -9 | 25 | 2 | -7
COC(=O)c1ccc(C2C(C(C)=O)=C(C)Nc3ncnn32)cc1 (configuration not stated) | 5 | -12 | · | 0.2 | -13 | -21
CCOC(=O)c1nnc(-c2ccccc2)o1 | 16 | 4 | 11 | 0.6 | 12 | -5
Cc1cc2oc(=O)cc(CN3CCN(Cc4ccccc4)CC3)c2cc1Cl | 0 | -5 | -1 | -1.2 | 19 | 7
O=C(c1ccccc1)N1CCN(C(=O)c2ccc3c(c2)OCCO3)CC1 | 3 | -2 | 0 | -1.1 | -4 | -10
CCSc1nc2n(n1)C(c1cccc(F)c1)C1=C(CCCC1=O)N2 (configuration not stated) | -2 | -2 | 0 | 0.1 | -11 | 8
CCN(CC)c1ccc(C=Nc2cccnc2Cl)c(O)c1 | 8 | 7 | 11 | 2.8 | -7 | 0
O=c1[nH]cn[nH]1 | 2 | -20 | -9 | · | · | 1
CCn1ncc(N(C)N)c(Cl)c1=O | 2 | -3 | 9 | -0.4 | 2 | 7
CCCCCOC(=O)C1=C(C)NC(=O)NC1c1ccc([N+](=O)[O-])cc1 (configuration not stated) | 3 | -5 | -10 | 1.6 | 11 | -17
Cc1ccc(S(=O)(=O)N2CCN(C)CC2)c(C)c1 | 1 | -13 | 1 | -0.6 | 2 | -1
CCO[C@@H]1OC(C(=O)Nc2ccccc2)=C[C@H](c2ccccc2)[C@H]1CCCO | 6 | -15 | -1 | -0.1 | 2 | 6
COc1cc(/C=C2/C(=O)N(c3ccc(Br)cc3)N=C2C)cc(OC)c1OC | -3 | -7 | -15 | · | · | -2
CCCNC(=O)c1cc2c(c(-c3cccc(-c4ccccc4F)c3)n1)[C@@H](CCO)N(C(=O)CC1CC1)C2 | -5 | · | · | -0.3 | · | 6
CC(C)n1nnnc1C1c2ccccc2C(=O)N1CCc1c[nH]c2ccccc12 (configuration not stated) | 1 | · | · | -0.4 | · | 0
COCc1cc(=O)n2c([nH]c3ccccc32)c1C#N | 0 | -1 | 30 | 0.5 | -10 | 3
CCOCC(=O)OCC(=O)Nc1cc(OC)c([N+](=O)[O-])cc1C | 8 | -4 | 12 | 0.3 | -4 | 8
O=C(OCCN=C1NS(=O)(=O)c2ccccc21)c1ccccc1 | -3 | -10 | 1 | 2.0 | 14 | -13
CCCc1cnc(NCCNCC(O)COc2ccc(Cl)c(Cl)c2)nc1 (configuration not stated) | -4 | -17 | -13 | 2.0 | 58 | -4
Cc1cc(C)cc(NC(=O)C2C3C=CC4(O3)C2C(=O)N(CCN2CCCCC2)C4C(=O)NC2CCCCC2)c1 (configuration not stated) | 2 | -8 | -10 | -1.2 | 4 | -6
Cc1nc2c(=O)n(-c3cccc(C(F)(F)F)c3)nc(C)c2s1 | 4 | -5 | ? | 1.6 | 3 | 5
CC(C)(C)NC(=O)NC(=O)COC(=O)c1cccc(NS(=O)(=O)c2ccc(F)c(F)c2)c1 | 8 | 4 | 4 | 3.7 | 9 | -1
CC(C)C[C@@H](CNCC(=O)[C@H](CC(C)C)NC(=O)c1[nH]cnc1C(=O)N[C@@H](C)CN)NC(=O)c1nc[nH]c1C(=O)N[C@@H](CC(=O)O)C(=O)O | -1 | 1 | · | -0.8 | 13 | -7
CC(=O)Nc1cccc(NC(=O)CSc2nc(=O)n(CCN3CCOCC3)c3c2CCCC3)c1 | -9 | -9 | 6 | 0.0 | 13 | 1

# The list continues.
SMILES | Six1-Eya2 blk | D2 PAM | TRPV1 PAM | TRPML1 ag | TRPML1 blocker | CtBP-E1A blk
COC(=O)c1ccc(COc2ccc3c4c(c(=O)oc3c2)CCC4)o1 | 0 | 1 | 3 | 2.0 | 21 | -2
O=C(c1ccco1)N1CCN(c2ncnc3scc(-c4ccccc4)c23)CC1 | -8 | -3 | 7 | 3.7 | -7 | -6
Cc1csc(=O)n1CC(=O)OCC(=O)Nc1ccc(C(N)=O)cc1 | 13 | 3 | 2 | -0.6 | 0 | ·
Cc1ccc(OCC(=O)N(Cc2nnc(-c3ccccc3Cl)o2)C2CC2)cc1C | -1 | -1 | -17 | 0.9 | -9 | 3
Cc1cc(C(=O)NCCN2C(=O)S/C(=C\c3cccs3)C2=O)ccc1[N+](=O)[O-] | -18 | -2 | 0 | 2.1 | -12 | -1
NC(=O)C1(NC(=O)[C@@H]2CC3(CC(c4cccc(NC(=O)[C@@H]5CCC(=O)N5)c4)=NO3)CN2C(=O)Cc2ccc(Cl)cc2)CC1 (some centres not stated) | 2 | -6 | 3 | -0.6 | -2 | 1
Cc1ccccc1NC(=O)c1sc(Cl)nc1C | -6 | -4 | -4 | -0.7 | 25 | 5
CC(=O)Nc1ccc(N=Cc2ccc(OCc3ccccc3)cc2)cc1 | 14 | -5 | -7 | 1.2 | -13 | 2

# (list continues)
SMILES | Six1-Eya2 blk | D2 PAM | TRPV1 PAM | TRPML1 ag | TRPML1 blocker | CtBP-E1A blk
O=C(CSc1nccn1Cc1ccccc1)Nc1ccccc1 | -4 | -23 | -9 | 0.8 | -13 | 0
N#C/C(=C\c1ccc(O)c(O)c1)C(=O)N1CCCC1 | -9 | -8 | 2 | -0.4 | 19 | 4
COCC(=O)Nc1ccccc1Br | 6 | -7 | 5 | -0.1 | 2 | 5
CC(=O)c1ccc(N2CCN(C(=O)CN(C)S(=O)(=O)c3cnc[nH]3)CC2)cc1 | 1 | -7 | 0 | 0.1 | -14 | 5
Cc1cccc(C(=O)N2CCC[C@H]2C(=O)N2CCC[C@H]2C(=O)NCc2ccncc2)c1 | 15 | · | · | 0.3 | · | 13
O=C(NCc1ccccc1)C1=C[C@H](c2ccc(Br)cc2)C[C@H](OCc2ccc(CO)cc2)O1 | -4 | -4 | -9 | -0.5 | -11 | -4
O=C(OCCNc1ccc(C(F)(F)F)cc1[N+](=O)[O-])c1cc2ccccc2oc1=O | 7 | 0 | 0 | -0.4 | -5 | 11
COc1ccccc1Nc1nc(-c2cccs2)cs1 | -8 | -16 | -11 | -0.6 | -1 | -13

# Part of the list above, with values under each structure:
# Each structure is followed by: Six1-Eya2 blk, D2 PAM, TRPV1 PAM, TRPML1 ag, TRPML1 blocker, CtBP-E1A blk
- Cc1ccc(OCC(=O)N(Cc2nnc(-c3ccccc3Cl)o2)C2CC2)cc1C
→ -1, -1, -17, 0.9, -9, 3
- Cc1cc(C(=O)NCCN2C(=O)S/C(=C\c3cccs3)C2=O)ccc1[N+](=O)[O-]
→ -18, -2, 0, 2.1, -12, -1
- NC(=O)C1(NC(=O)[C@@H]2CC3(CC(c4cccc(NC(=O)[C@@H]5CCC(=O)N5)c4)=NO3)CN2C(=O)Cc2ccc(Cl)cc2)CC1 (some centres not stated)
→ 2, -6, 3, -0.6, -2, 1
- Cc1ccccc1NC(=O)c1sc(Cl)nc1C
→ -6, -4, -4, -0.7, 25, 5
- CC(=O)Nc1ccc(N=Cc2ccc(OCc3ccccc3)cc2)cc1
→ 14, -5, -7, 1.2, -13, 2
- O=C(CSc1nccn1Cc1ccccc1)Nc1ccccc1
→ -4, -23, -9, 0.8, -13, 0
- N#C/C(=C\c1ccc(O)c(O)c1)C(=O)N1CCCC1
→ -9, -8, 2, -0.4, 19, 4
- COCC(=O)Nc1ccccc1Br
→ 6, -7, 5, -0.1, 2, 5
- CC(=O)c1ccc(N2CCN(C(=O)CN(C)S(=O)(=O)c3cnc[nH]3)CC2)cc1
→ 1, -7, 0, 0.1, -14, 5
- Cc1cccc(C(=O)N2CCC[C@H]2C(=O)N2CCC[C@H]2C(=O)NCc2ccncc2)c1
→ 15, ·, ·, 0.3, ·, 13
- O=C(NCc1ccccc1)C1=C[C@H](c2ccc(Br)cc2)C[C@H](OCc2ccc(CO)cc2)O1
→ -4, -4, -9, -0.5, -11, -4
- O=C(OCCNc1ccc(C(F)(F)F)cc1[N+](=O)[O-])c1cc2ccccc2oc1=O
→ 7, 0, 0, -0.4, -5, 11
- COc1ccccc1Nc1nc(-c2cccs2)cs1
→ -8, -16, -11, -0.6, -1, -13

# Returning to the listing, starting 2 compounds before the break.
SMILES | Six1-Eya2 blk | D2 PAM | TRPV1 PAM | TRPML1 ag | TRPML1 blocker | CtBP-E1A blk
O=C(OCCNc1ccc(C(F)(F)F)cc1[N+](=O)[O-])c1cc2ccccc2oc1=O | 7 | 0 | 0 | -0.4 | -5 | 11
COc1ccccc1Nc1nc(-c2cccs2)cs1 | -8 | -16 | -11 | -0.6 | -1 | -13
Cc1sc(-n2cccc2)c(C(=O)O)c1C | -7 | -2 | -2 | -0.4 | -5 | 5
Cc1cccc(C(=O)NCC(=O)NC2CCN(Cc3ccccc3)CC2)c1 | 1 | -25 | · | -0.3 | 1 | -6
COC(=O)c1[nH]c2ccc(C)cc2c1NC(=O)CCN1CCN(Cc2ccc3c(c2)OCO3)CC1 | -9 | -24 | 17 | 0.3 | -9 | -14
CS(=O)(=O)Nc1ccc(C(=O)NCc2ccc3c(c2)OCO3)cc1 | -1 | -14 | -8 | 0.3 | -3 | 3
Oc1ccc(-c2nc3ccccc3s2)c(O)c1 | -3 | -18 | 6 | -1.3 | 15 | 9
O=C(c1ccccc1)n1nnc2ccccc21 | 2 | -3 | 17 | 0.8 | 5 | -14
O=C1CCCC/C1=C\Nc1ccccc1C(=O)O | -1 | 3 | -5 | -0.9 | 32 | -1
CN(C)CCCN(C(=O)c1ccc(S(=O)(=O)N2CCc3ccccc32)cc1)c1nc2c(Cl)cccc2s1 | ? | -17 | 30 | 0.4 | 12 | ?
CN(Cc1ccccc1)c1nc(-c2ccc(F)cc2)cc(C(F)(F)F)n1 | · | · | -6 | 0.7 | -7 | ·
COc1ccccc1CNC(=O)COC(=O)c1ccco1 | 7 | -6 | · | -0.2 | 2 | ·
Cc1ccc(C(=O)NNC(=O)CSc2nnc3c(n2)[nH]c2ccc(F)cc23)cc1 | ? | 1 | 7 | -0.6 | -16 | ?
